Source: PubChem BioAssay
PMP22 txn: PMP22 gene transcription modulation. S16 Pmp22-F2sN Schwann cells (luciferase reporters placed in the Pmp22 gene), FLuc/NLuc coincidence luminescence, 24 h. Potency, µM (doses to about 57.5 µM), without a hit: at the top dose activity change, negative = inhibition, most hits filed as inhibitors. 43,000 compounds, 2% hits. AID 1508649; active = clear falling dose curves in both reporters; inconclusive = both reporters move, but less clearly or upward; inactive = either reporter flat; the % is the NLuc reporter signal; also: % is scaled to controls: 0 for no effect and ±100 for the full control effect; some results filed as inactive show a strong effect at the top dose
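S16(c9) Schwann cells with FLuc/NLuc coincidence reporter in the Pmp22 3' UTR; compounds pin-transferred, 24 h at 37C. Dual-luciferase read: FLuc first, then NLuc after Stop&Glo, each 10 min at room temperature.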
HTT prom inh: inhibits huntingtin promoter activity; HEK293 HTT promoter firefly luciferase reporter (activity 0% = vehicle and -100% = no light), 24 h; Potency, µM (doses to about 57.5 µM), for the others: at the highest dose activity change, negative = inhibition, hits mostly inhibitors; 48,000 compounds, 0.93% hits; AID 1508623; active = well fitted inhibition curve with a large enough effect; inconclusive = small, poorly fitted or top-dose-only effect; inactive = no such curve, though single readings can be large or run the other way; also: nearly all actives have a fitted effect of over 50% in size
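HEK293 Fluc reporter, 2,500 cells/well, 24 h pre-culture; cpds up to 57.5 uM final, 24 h 37 degrees C; Dual-Glo, 10 min RT; normalized vehicle = 0%, zero RLU = -100%.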
* hit, by the source's call; ? = inconclusive; · = not tested or not shown; [ ] = another dose, or the depositor's remark. Potency is read from the fitted curve at half-maximal effect.

SMILES | PMP22 txn | HTT prom inh
CN(C)CCN(C)C(=O)c1ccc(NC(=O)Nc2ccc(-c3nc(N4CCOCC4)c4ccn(CC(F)(F)F)c4n3)cc2)cc1 | · | ?
CC1Cn2cc(C(=O)Nc3ccccc3C(F)(F)F)c(=O)c3c(Cl)ccc(c32)O1 (centres undefined) | 3% | -12%
COc1cccc(NC(=O)CSc2cc(C)[nH]c(=O)n2)c1 | -2% | 1%
CC(C)Sc1oc(-c2cccs2)nc1S(=O)(=O)c1ccc(Cl)cc1 | -30% | ?
CCCn1c2ccccc2c2cnn(CC(=O)NC(CCSC)C(=O)OC)c(=O)c21 (centres undefined) | -25% | 3%
Cc1noc(C)c1S(=O)(=O)N1CCC(C(=O)N2CCN(c3cccc(C(F)(F)F)c3)CC2)CC1 | ? | ?
Cc1nn(C(=O)COc2ccccc2Br)c(C)c1Sc1ccccc1 | -17% | -33%
CCc1ccc(C(=O)c2cn(CC(=O)Nc3ccc4c(c3)OCCO4)c3ccc(C)cc3c2=O)cc1 | 45% | -11%
CCN(Cc1ccccc1)C(=O)c1cc2c(=O)oc3ccc(C)cc3c2s1 | ? | -8%
CCOc1ccccc1NCc1nnc2n1CCCCC2 | -3% | -8%
CN(CC(=O)Nc1cccc(C(F)(F)F)c1)S(=O)(=O)c1ccc2[nH]c3c(c2c1)CCCC3 | ? | -19%
COC(=O)c1ccc(NC(=O)C(c2ccccc2)N2Cc3ccccc3C2=O)cc1 (centres undefined) | 2% | -9%
CCOc1ccc(NC(=O)N2CCN(S(=O)(=O)c3ccc4c(ccn4C)c3)CC2)cc1 | 20% | -17%
O=C(NCCCO)c1nn(-c2ccc(Cl)cc2)nc1CO | -2% | 1%
Cc1ccc(CNC(=O)Nc2cn(CC(C)C)c(=O)c3ccccc23)cc1 | -8% | -16%
CCOC(=O)c1c(NC(=O)c2nc(SC)ncc2Cl)sc(C)c1C | -4% | -7%
Cc1cccn2c(=O)c(C(=O)NCCc3ccccc3)cnc12 | 1% | -18%
O=C(COc1ccc(Cl)cc1)OCc1cc(=O)n2nc(-c3cccs3)sc2n1 | 2% | -2%
CCCN1CCCC[C@H]1C(=O)Nc1c(C)cccc1C | · | 7%
CC(=O)c1ccc(N2CCN(C(=O)Cn3ncc4c3-c3ccccc3OC4)CC2)cc1 | ? | -38%
O=C(Cn1c(=O)n2nc(-c3cccc(F)c3)nc2c2ccccc21)NCc1ccc(Cl)cc1 | 1% | 1%
COc1cccc(NC(=O)CSc2nc(=O)n(Cc3ccncc3)c3c2CCC3)c1 | -6% | 0%
CCOc1cccc(NC(=O)CSc2ncc(-c3ccccc3)[nH]2)c1 | 14% | 21%
COc1ccc(NC(=O)c2ccc3oc(=O)c(S(=O)(=O)c4ccc(F)cc4)cc3c2)cc1OC | -1% | ?
Cc1ccc(C)c(N2CCN(S(=O)(=O)c3cc(C(=O)Nc4cc(Cl)cc(Cl)c4)ccc3F)CC2)c1 | ? | -16%
CCc1ccc(C(=O)c2cn(Cc3ccccc3)c3cc(OC)c(OC)cc3c2=O)cc1 | ? | -26%
COc1cccc(-c2ccc3c(N)c(C(=O)c4ccc(Br)cc4)sc3n2)c1 | ? | -25%
CCN(c1ccccc1)S(=O)(=O)c1nnc(NC(=O)COc2ccccc2F)s1 | -29% | -26%
COc1ccc(NC(=O)Cn2nc(-c3ccncc3)ccc2=O)cc1Cl | -12% | ?
c1ccc(-c2nn3c(c2-c2ccnc4cc(OCCN5CCOCC5)ccc24)CCC3)nc1 | · | ?
Cc1ccc(C)c(NC(=O)Cn2c(=O)n(Cc3nc(C)no3)c(=O)c3cc4c(cc32)OCO4)c1 | 16% | -15%
Cc1nn2c(=O)cc(COC(=O)c3ccc(NC(=O)c4ccc(C(C)(C)C)cc4)cc3)nc2s1 | -2% | -14%
COC(=O)c1ccccc1NC(=O)C1=CC(c2ccc(C)cc2)=NS(=O)(=O)N1C | ? | -9%
CCN(C(=O)c1cc2c(=O)oc3ccccc3c2s1)c1ccccc1F | -22% | -4%
CCN(CC)S(=O)(=O)c1ccc(C(=O)NCCSc2c(-c3ccc(C)cc3)[nH]c3ccccc23)cc1 | -5% | ?
Cc1ccc(OCCSc2nc3ccc(NC(=O)COc4ccc(C)cc4)cc3s2)cc1 | 8.9µM* | 2%
COCCNc1ncnc2c1c(-c1ccccc1)cn2-c1cccc(Cl)c1 | -23% | ?
COc1ccc(CC(=O)N(Cc2nc(-c3ccc(C)cc3)no2)C(C)C)cc1 | ? | -25%
Cc1ccc(CCNC(=O)NCc2noc3ccc(C)cc23)cc1 | 5% | -16%
CCOc1ccc(CCNC(=O)Cn2c(=O)c3cccn3c3ccc(F)cc32)cc1OCC | -14% | 0%
COc1ccccc1CNS(=O)(=O)c1ccc(-c2cc(C(F)(F)F)on2)s1 | ? | ?
CCC(C(=O)NCCc1ccc(SC)cc1)n1nc(C)c2c(C)n(-c3ccc(C)cc3)nc2c1=O (centres undefined) | ? | 35µM*
COc1ccccc1C(=O)Nc1nnc(S(=O)(=O)N(C)c2ccc(Cl)cc2)s1 | 7% | 16%
Cc1ccc(Cl)cc1NC(=O)COCc1cc(-c2ccco2)on1 | -5% | 9%
Cc1cc(NC(=O)CSc2ncc(C(=O)Nc3ccc(C)c(C)c3)c(=O)n2C)no1 | -8% | -1%

Of the compounds above, 2 contain bromine:
SMILES | PMP22 txn | HTT prom inh
Cc1nn(C(=O)COc2ccccc2Br)c(C)c1Sc1ccccc1 | -17% | -33%
COc1cccc(-c2ccc3c(N)c(C(=O)c4ccc(Br)cc4)sc3n2)c1 | ? | -25%

(continued)
SMILES | PMP22 txn | HTT prom inh
CC(=O)Nc1ccc(NC(=O)c2cc(CN3CCCC3)on2)cc1 | 17% | 16%
CC1=C(c2ccc(C)c(C)c2)S(=O)(=O)N=C1N1CCC(C(=O)Nc2ccc(Cl)cc2)CC1 | ? | -21%
COC(=O)c1ccc(Cn2nc(-c3ccc(C)c(C)c3)ccc2=O)cc1 | -3% | -23%
CCn1c(=O)cc(OCC(=O)N(C)c2ccc(OC)cc2)c2ccccc21 | -18% | 12%
O=C(CSc1nccn1Cc1ccccc1)NCc1ccccc1Cl | -36% | 5%
Cc1ccc2c(c1)N(CCC(=O)NCc1ccccc1Cl)C(=O)CO2 | -12% | -13%
COc1ccccc1NC(=O)c1oc2ccccc2c1NC(=O)c1ccc(S(=O)(=O)N(C)C)cc1 | -34% | 1%
CCOc1ccc(CCNC(=O)C(CC)n2nc(C)c3c(C)n(-c4ccccc4)nc3c2=O)cc1 (centres undefined) | ? | ?
CCN(CC)C(=O)C1=C(C)Nc2nc3ccccc3n2C1c1ccc(Cl)cc1 (centres undefined) | -7% | 0%
CCc1cccc2sc(N3CCN(C(=O)C4CC4)CC3)nc12 | 6% | ?
Cc1nc(-c2ccccc2)sc1CCNC(=O)C(=O)Nc1ccc2c(c1)OCO2 | ? | -7%
COCCNC(=O)Cn1nc(-c2ccc(C)cc2)c2ccccc2c1=O | 12% | -17%[11.5 µM]
O=C(Nc1ccc(Cl)cc1)C1CCC(CNS(=O)(=O)c2ccc(Br)s2)CC1 (centres undefined) | ? | -12%
CCC1=Nc2cc(C(=O)NCc3ccccc3Cl)ccc2Sc2ccc(C)cc21 | 10µM* | ?
CCC(=O)n1nc(-c2cccnc2)nc1NCc1ccc(F)cc1 | -12% | -15%
CCOC(=O)CSc1nc2ccc(NC(=O)c3ccc(F)cc3)cc2s1 | 4% | 1%
CC(C)C(=O)Nc1c(C(=O)N2CCN(c3ccccc3F)CC2)oc2ccccc12 | 20% | -12%
CCc1cccc(NC(=O)C2CCC(CNS(=O)(=O)c3ccc4c(c3)CCCC(=O)N4)CC2)c1 (centres undefined) | ? | ?
Cc1ccc(NC(=O)c2cnc(SCC(=O)N3CCOCC3)n(C)c2=O)cc1 | -21% | -11%
Cc1ccccc1OCC(=O)Nc1ccc(S(=O)(=O)N(Cc2ccccc2)c2ccccc2)cc1 | -14% | -21%
CC(=O)OC[C@H]1O[C@@H](OC(C)=O)[C@H](OC(C)=O)[C@@H]1OC(C)=O | · | 0%
Cc1cccc(CS(=O)(=O)Cc2ccc(C(=O)NC(C)c3ccccc3)o2)c1 (centres undefined) | -26% | -18%
CC1CCN(C(=O)CSc2nnc(NC(=O)Nc3ccccc3)s2)CC1 | 19µM* | ?
Cc1ccc(NC(=O)CSc2ccc(-c3sc(-c4ccccc4)nc3C)nn2)cc1F | -4% | -1%
CC1=C(C(=O)NCc2cccc(Br)c2)C2(CCCCC2)OC1=O | -39% | -24%
COc1cccc(C(=O)Nc2ccccc2-c2nc3ccccc3s2)c1 | -28% | -10%
COc1ccccc1NC(=O)C1=C(C)Nc2c(C(=O)Nc3ccc(F)cc3)cnn2C1c1cccc([N+](=O)[O-])c1 (centres undefined) | -16% | -10%
Brc1ccc(-c2nnc3sc(CN4CCCCC4)cn23)cc1 | -32% | -12%
CCc1c(C)nc2nc(-c3ccccc3)nn2c1NCc1ccc(C)cc1 | ? | -5%
CCCN1C(=O)C2(c3ccccc31)c1c(oc3ccccc3c1=O)C(=O)N2CCO (centres undefined) | 1% | -8%

Shown with tabs: 4 of the compounds above.
Structure	PMP22 txn	HTT prom inh
CCN(c1ccccc1)S(=O)(=O)c1nnc(NC(=O)COc2ccccc2F)s1	-29%	-26%
Cc1cccc(CS(=O)(=O)Cc2ccc(C(=O)NC(C)c3ccccc3)o2)c1 (centres undefined)	-26%	-18%
CC1CCN(C(=O)CSc2nnc(NC(=O)Nc3ccccc3)s2)CC1	19µM*	?
CN(CC(=O)Nc1cccc(C(F)(F)F)c1)S(=O)(=O)c1ccc2[nH]c3c(c2c1)CCCC3	?	-19%

Additional records.
SMILES | PMP22 txn | HTT prom inh
COc1ccc(NC(=O)c2csnn2)cc1 | ? | 61%[activator]
Cc1ccc(-n2nc3c(=O)n(CC(=O)NC(C)C)nc(C)c3c2C)cc1 | 13% | -4%
CCOc1ccc(Nc2oc(/C=C/c3ccc(F)cc3)nc2C#N)cc1 | -39% | 1%
O=[N+]([O-])c1cc(-c2nc(-c3ccccc3)no2)ccc1NC1CCCC1 | 8% | -27%
O=C(c1cc2c(=O)[nH]c3ccccc3c2s1)N1CCN(c2ccc(F)cc2)CC1 | ? | -10%
Cc1ccc(-n2ncc3c(N4CCN(C)CC4)ncnc32)cc1C | ? | -32%
CCOC(=O)N1CCC(NC(=O)c2cnn(-c3ccc(OC)cc3)c2C2CCN(C(=O)OC(C)(C)C)CC2)CC1 | -4% | 7%
CCN(CCCNC(=O)c1nn(-c2ccc(OC)c(Cl)c2)c(=O)c2c1c1ccccc1n2C)c1cccc(C)c1 | -25% | -16%
COc1ccc(NC(=O)Cn2cc(S(=O)(=O)c3ccccc3)c(=O)c3cc4c(cc32)OCO4)cc1 | 6% | -12%
O=C(c1ccc2c(c1)N(Cc1ccccc1)C(=O)c1ccccc1S2(=O)=O)N1CCCC1 | ? | -7%
CCS(=O)(=O)N1CCc2cc(C(=O)Nc3cc(C(F)(F)F)ccc3Cl)ccc21 | -20% | -21%
CCOC(=O)c1c(NC(=O)C(C)Sc2cn(CCNC(=O)c3ccccc3OC)c3ccccc23)sc2c1CCC2 (centres undefined) | ? | -33%
Cc1cccn2c(=O)c3cc(C(=O)NC(C)c4ccccc4)c(=N)n(CCCO)c3nc12 (centres undefined) | ? | -6%
Cn1nnnc1SCCCNCc1cc(Cl)ccc1OCc1ccc(F)cc1 | ? | -28%
COc1ccc(C(=O)Nc2ccc3oc(-c4cccnc4)nc3c2)cc1OC | -24% | ?

Part of the list above, with each value named.
Compound: O=C(c1ccc2c(c1)N(Cc1ccccc1)C(=O)c1ccccc1S2(=O)=O)N1CCCC1
  PMP22 txn: ?
  HTT prom inh: -7%
Compound: CCS(=O)(=O)N1CCc2cc(C(=O)Nc3cc(C(F)(F)F)ccc3Cl)ccc21
  PMP22 txn: -20%
  HTT prom inh: -21%
Compound: CCOC(=O)c1c(NC(=O)C(C)Sc2cn(CCNC(=O)c3ccccc3OC)c3ccccc23)sc2c1CCC2 (centres undefined)
  PMP22 txn: ?
  HTT prom inh: -33%

Next section.
SMILES | PMP22 txn | HTT prom inh
CC(C)c1cnc2c(c1SCC(=O)c1ccccc1)c(=O)n(C)c(=O)n2C | ? | -15%
Cc1nc2nc(NC(=O)c3ccc(C(C)(C)C)cc3)[nH]n2c(=O)c1C | -1% | -5%
Cn1c(SCc2ccc(F)cc2)nc2ccc(C(=O)NCc3cccc(Cl)c3)cc21 | ? | ?
Cc1oc2ncnc(N3CCOCC3)c2c1C(=O)N1CCN(c2cccc(C(F)(F)F)c2)CC1 | -9% | -9%
CC(C)c1ccc(NC(=O)CCn2c(=O)c3cccn3c3ccccc32)cc1 | ? | -3%
Cc1ccc(NC(=O)C2CCCN(S(=O)(=O)c3ccc4c(c3)oc(=O)n4C)C2)cc1Cl (centres undefined) | -20% | -3%
CCOC(=O)C1=C(CN2CCC(C(=O)OCC)CC2)NC(=O)NC1c1ccc(Cl)cc1 (centres undefined) | -31% | ?
Cc1cccc(N2CCN(c3ccc4cc(S(=O)(=O)N5CCC(C)CC5)ccc4n3)CC2C)c1 (centres undefined) | 10% | -3%
Cc1cccc(NC(=O)c2ccc(-n3c(C)nnc3C)cc2)c1 | 11% | 4%
CCC1CN(C(=O)N2CCC(C(=O)N3CCN(c4cc(C)ccc4C)CC3)CC2)c2ccccc2O1 (centres undefined) | ? | ?
